# CDC25B-CDK2 inh: human CDC25B-CDK2/CyclinA binding inhibition; z-score (test concentration not listed); hit rate 0.72% among 94,000; HTRF CDC25B-CDK2/CyclinA binding, anti-His/anti-Flag; hits give high values;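 note: score is relative to mean and SD of negative controls; strong numbers were not always called active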
# TAR Tat displ: HIV-1 TAR-Tat binding disruption; z-score (no concentration beside the values); hit rate 0.6% among 100,000; HIV-1 TAR RNA, Tat peptide displacement FRET; hits give high values;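 note: score is relative to mean and SD of negative controls; some compounds called inactive have numbers as strong as hits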
# The depositor's hits bear a star; / = no result given.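 Rule for the calls: active = z-score from 3 up in half or more of its runs; inactive = the rest.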
SMILES	CDC25B-CDK2 inh	TAR Tat displ
O=C(CCc1nnc2ccc(NCc3ccc4c(c3)OCO4)nn12)NC1CCCC1	/	0.97
CCc1ccc(CN2CCc3nc(N4CCN(CC)CC4)ncc3C2)cc1	/	1.63
CC(C)(CC(=O)N1CCN(c2ncccc2C(F)(F)F)CC1)Sc1ccc(Cl)cc1	-0.8	/
CC1=NN(C(=O)c2ccc(Br)o2)C(O)(C(F)(F)F)C1 (stereo unspecified)	-1.36	/
O=C(CCCN1CCSc2ccccc21)NC1CCCCC1	/	2.03
COc1ccc(COC(=O)C2=C(C)NC3=C(C(=O)CCC3)C2c2ccc(Br)cc2)cc1 (stereo unspecified)	-0.5	2.05
Cc1[nH]c2ccccc2c1SCC(=O)NNC(=O)Nc1cccc(Cl)c1	14.3*	/
CCOC(=O)C1CCCN(C(=O)CSc2ccsc2[N+](=O)[O-])C1 (stereo unspecified)	-1.39	-1.12
O=C(CN1c2ccccc2S(=O)(=O)c2ccccc21)NC1CCCC1	/	-0.61
CCSc1nc2c(c(=O)[nH]1)C(c1ccc(C(=O)OC)cc1)C(C(=O)OC)=C(C)N2 (stereo unspecified)	-0.93	-1.17
CC1=C(c2ccc(F)cc2)S(=O)(=O)N=C1N1CCN(c2ccc(F)cc2)CC1	/	0.06
Cc1nc2cc(-c3ccc(Cl)cc3)nn2c(C)c1CCC(=O)NC(C)c1cccs1 (stereo unspecified)	-0.34	/
O=C(O)CCc1nc(-c2ccncc2)no1	-0.68	0.21
CSc1ccc(/C=N/NC(N)=O)s1	-1.37	/
CCOc1ccc(S(=O)(=O)[C@H]2CS(=O)(=O)C[C@@H]2NCc2ccc(C)cc2)cc1	-1.35	2.01

# Remaining list, next part
SMILES	CDC25B-CDK2 inh	TAR Tat displ
COc1ccccc1N1CCN(c2nnc(C)c3ccccc23)CC1	-0.35	0.36
CCc1nc(-c2csc(S(=O)(=O)N3CCC(C(=O)N4CCCCC4)CC3)c2)no1	/	1.73
CC(=O)N1c2ccccc2C(=O)C1N1CCN(c2ccc(Cl)cc2)CC1 (stereo unspecified)	/	0.59
CC(C)c1nc(N(C)S(C)(=O)=O)nc(-c2ccc(F)cc2)c1/C=C/[C@@H](O)C[C@@H](O)CC(=O)O	/	1.42
CCOC(=O)c1[nH]c(C)c(C(=O)N2CCc3ccccc32)c1C	-1.26	/
CCCCCCCOC(=O)C1=C(C)Nc2ncnn2C1c1ccc(OC)cc1 (stereo unspecified)	-1.69	1.4
COc1ccccc1C(=O)CC1(O)C(=O)N(Cc2ccccc2)c2ccccc21 (stereo unspecified)	-1.26	0.85
O=C(NCCCN1CCCC1=O)c1cnn(-c2ccc(F)cc2)c1-n1cccc1	/	2.2
Cc1nc(C)c(-c2ccn[nH]2)o1	-0.46	/
O=C(c1cc(-c2ccncc2)n[nH]1)N1CCN(C(=O)c2ccco2)CC1	/	2.98
O=C(Nc1ccccc1C(=O)NC1CCCCC1)C1=CSCCO1	/	0.81
CN(C)CCCn1c(C2CC(=O)N(c3cccc(Cl)c3)C2)nc2ccccc21 (stereo unspecified)	0.86	-1.22
CC(=O)N1c2ccc(S(=O)(=O)N3CCCCC3)cc2CC1C(=O)O (stereo unspecified)	-0.53	0.34
CCc1ccc(C2c3c(oc4ccccc4c3=O)C(=O)N2c2nc(C)c(C)s2)cc1 (stereo unspecified)	-0.38	0.08
CCSc1nc(-c2ccccc2F)nc2c1Cc1c(CO)cnc(C)c1O2	/	1.48

# Complete entries as entered above. Order of screens: CDC25B-CDK2 inh, TAR Tat displ
# Entry for CCOC(=O)c1[nH]c(C)c(C(=O)N2CCc3ccccc32)c1C = -1.26, /
# Entry for CC(C)c1nc(N(C)S(C)(=O)=O)nc(-c2ccc(F)cc2)c1/C=C/[C@@H](O)C[C@@H](O)CC(=O)O = /, 1.42
# Entry for CN(C)CCCn1c(C2CC(=O)N(c3cccc(Cl)c3)C2)nc2ccccc21 (stereo unspecified) = 0.86, -1.22
# Entry for O=C(Nc1ccccc1C(=O)NC1CCCCC1)C1=CSCCO1 = /, 0.81
# Entry for CC(=O)N1c2ccc(S(=O)(=O)N3CCCCC3)cc2CC1C(=O)O (stereo unspecified) = -0.53, 0.34

# (more compounds)
SMILES	CDC25B-CDK2 inh	TAR Tat displ
CCOC(=O)c1c(C)[nH]c(C)c1S(=O)(=O)N1CCCC(C(=O)NC2CCCC2)C1 (stereo unspecified)	/	0.64
CCOc1ccc(-n2ccc(=O)c(C(=O)Nc3nc4ccc(Cl)cc4s3)n2)cc1	1.23	0.46
CCOC(=O)Cn1nnc2sc3c(c2c1=O)CCC(C)C3 (stereo unspecified)	-0.32	/
Brc1ccc(Nc2cc(-c3ccccc3)ncn2)cc1	0.12	-1.2
C[C@@]1(C2CCCC2)Cc2cc(OCC(=O)O)c(Cl)c(Cl)c2C1=O	-1.21	/
CCOC(=O)c1ccc(-n2c(N)c(C(=O)N3CCCC3)sc2=S)cc1	/	2.8
COc1ccc(-c2nnc(SCCC(=O)O)n2C)cc1	0.04	-1.07
Cc1ccc(C(=O)CC2(O)C(=O)Nc3ccc(Cl)cc32)cc1 (stereo unspecified)	-1.71	0.46
Cc1ccn2c(=O)c(Cc3nnc(SCC(=O)Nc4ccc5c(c4)OCCO5)n3C)c(C)nc2c1	-2.12	1.15
CC(=O)CSc1n[nH]c(-c2ccc(Cl)cc2)n1	-0.56	/
Oc1ccccc1C1=Nn2c(nnc2-c2ccc(Cl)cc2)SC1	-1.25	-0.79
Cc1noc(NS(=O)(=O)c2ccc(NC(=O)c3ccncc3)cc2)c1C	0.44	/
Cc1ccc(C(=O)n2c(=O)oc3cc(C)ccc32)cc1	/	1.05
CCOc1cc(C2CC(=O)Nc3nc(SCc4ccccc4)[nH]c(=O)c32)ccc1O (stereo unspecified)	-2.13	1.94
CCCCCn1c(CN2CCOCC2)nc2c1c(=O)n(C)c(=O)n2C	-1.41	-0.71

# More records follow.
SMILES	CDC25B-CDK2 inh	TAR Tat displ
Cc1cc(C)c(NC(=O)c2cnn3c(C)cc(C)nc23)c(C)c1	-1.71	1.02
Cc1cc(CNC(=O)Nc2ccc3c(c2)OCO3)c(C)n1-c1ccc(F)cc1	/	0.29
O=c1c2cc(-c3ccccc3)sc2ncn1/N=C/c1ccc2c(c1)OCO2	-1.38	/
O=C(Nc1cccc(Br)c1)C1CCC(=O)N1S(=O)(=O)c1ccccc1 (stereo unspecified)	/	2.19
CCCN1CCN(CCCNC(=O)NC2COc3ccccc3C2)CC1 (stereo unspecified)	/	1.03
COc1ccc(OC)c2[nH]c(=O)c(CCNC(=O)Cc3cccs3)cc12	-1.97	/
CC(=O)N1CCc2cc(Br)cc(S(=O)(=O)NCC3CCCO3)c21 (stereo unspecified)	-0.85	/
COCCNS(=O)(=O)c1cc(Br)cc2c1N(C(=O)C1CC1)CC2	1.75	/
O=C(CSc1ncnc2c1sc1cccc(F)c12)N1CCCCC1	/	-0.7
Clc1cccc(CN2CCN(C3CCCCC3)CC2)c1	-1.02	-1.12
Cc1ncc(CO)c2c1Oc1[nH]c(-c3ccc(F)cc3)nc(=S)c1C2	-1.82	0.18
CCCN1CCN(c2nc(C)nc3oc(C)c(C(=O)OCC)c23)CC1	/	0.72
CN1C(=O)C(O)(CC(=O)c2ccc3c(c2)CCCC3)c2ccccc21 (stereo unspecified)	-0.31	0.23
Cc1ccc(CNS(=O)(=O)c2ccc(CN3C(=O)c4cccnc4C3=O)cc2)cc1	/	0.51
CCc1nn(CC(=O)NCCCN2CC(C)CC(C)C2)c(=O)c2cc3sc(C)cc3n12 (stereo unspecified)	-0.88	0.11

# The list continues.
SMILES	CDC25B-CDK2 inh	TAR Tat displ
Cc1ccc(C(c2ccc(C)o2)c2ccccc2O)o1	0	-3.32
CCc1cc(Sc2ccc(N)cc2)n2ncnc2n1	/	2.22
O=C(c1ccc2c(c1)nc1n2CCCCC1)N1CCOCC1	/	0.56
CCOc1cc(C2CC(=O)NC3=C2C(=O)CC(c2ccc(OC)cc2)C3)cc(Br)c1O (stereo unspecified)	0.8	1.4
CCNc1oc(/C=C/c2ccccc2OC)nc1C#N	-0.39	0.62
CS(=O)(=O)CCC(C(=O)Nc1ccc(F)c(Cl)c1)N1Cc2ccccc2C1=O (stereo unspecified)	/	-1.1
COc1ccc(Nc2c(-c3cc(C)c(C)cc3C)c(=O)c2=O)c(OC)c1	/	-0.74
O=C(c1sc2ncccc2c1-n1cccc1)N1CCCC1	/	1.13
O=C(CCC1=NS(=O)(=O)c2cc(Br)cnc2N1)N1CCOCC1	-0.61	/
Cc1ccc(N2C(=O)N(Cc3ccc(Br)cc3F)C3CS(=O)(=O)CC32)cc1Cl (stereo unspecified)	-1.5	-0.09
CCOC(=O)c1ccc2nc(-c3ccc(C)cc3)cc(OCC)c2c1	-1.83	2.17
CCOC(=O)c1c(O)c2c([nH]c1=O)CCCC2	/	1.22
CCN1c2cc(C)ccc2-n2cccc2C12CCNCC2	3.51	-0.27
CS(=O)(=O)Nc1ccc2nc(SCC(=O)Nc3ccc(Cl)cc3)sc2c1	-0.47	-0.87
Cc1nn(-c2ccccc2)c2c1C(c1ccncc1)C(C#N)=C(N)O2 (stereo unspecified)	-1.94	0.64

# Copied from the list.
# Value for `CCCN1CCN(CCCNC(=O)NC2COc3ccccc3C2)CC1` (stereo unspecified) under TAR Tat displ: 1.03
# Value for `O=C(Nc1cccc(Br)c1)C1CCC(=O)N1S(=O)(=O)c1ccccc1` (stereo unspecified) under TAR Tat displ: 2.19

# Quoted at random: 3 compounds from above.
SMILES	CDC25B-CDK2 inh	TAR Tat displ
COCCNS(=O)(=O)c1cc(Br)cc2c1N(C(=O)C1CC1)CC2	1.75	/
O=C(CSc1ncnc2c1sc1cccc(F)c12)N1CCCCC1	/	-0.7
O=C(Nc1ccccc1C(=O)NC1CCCCC1)C1=CSCCO1	/	0.81

# Continued.
SMILES	CDC25B-CDK2 inh	TAR Tat displ
CC1N=C(c2ccc(Cl)cc2)NO1 (stereo unspecified)	-1.14	/
C=C(C)Cc1c(C)nc(SCC)[nH]c1=O	-0.73	/
O=C1C(=O)N(Cc2ccccc2)c2ccc(Br)cc21	-1.83	1.82
Cn1nnnc1SCC(=O)Nc1ccc(Br)cc1	-2	1.03
O=c1ccc(-c2ccc(S(=O)(=O)N3CCN(Cc4ccccc4)CC3)s2)n[nH]1	/	-0.73
CN(C(=O)Cc1noc2ccccc12)C1CCCCC1	-2.09	-0.32
CCOC(=O)c1cc(CN2C(=O)CSc3ccc(S(=O)(=O)N4CCCC4)cc32)on1	/	-0.29
Cc1cccc(-n2nnc(S(=O)(=O)c3ccc(Cl)cc3)c2C)c1	-0.42	0.57
CN(C)c1ccc(-c2nnc3n(Cc4ccccc4)c(=O)c4ccccc4n23)cc1	-0.84	0.85
CCOC(=O)c1c(NS(=O)(=O)c2cccs2)sc2c1CCC2	-1.61	-0.38
CCCCN(C)C(=O)c1noc2c1COc1ccccc1-2	0.74	0.82
CCc1nc(-c2csc(S(=O)(=O)Nc3ccc(F)cc3F)c2)no1	/	0.54
CN(C)c1ccc(CNC(=O)NC2COc3ccccc3C2)cc1 (stereo unspecified)	/	0.15
O=C(CSc1nccn1Cc1ccc2c(c1)OCO2)NCc1ccccc1	/	1.35
COc1ccc(C2Nc3ccccc3NC3=C2C(=O)CC(C)(C)C3)cc1OCc1ccccc1 (stereo unspecified)	-0.95	0.71

# The list continues:
SMILES	CDC25B-CDK2 inh	TAR Tat displ
O=C1CCC(c2ccc(Br)cc2)=NN1	-1.53	1.47
CC(C)(C)c1cc(C(c2ccccn2)N2CCN(CCO)CC2)cc(C(C)(C)C)c1O (stereo unspecified)	-0.93	0.14
CSC(/N=C(/N)C(F)(F)F)=C(C#N)C#N	-2.32	/
Cc1cc(C)c2c(n1)nn1c(C)c(CCC(=O)NCCCOC(C)C)c(C)nc21	-0.59	1.09
CCOc1ccc(C)cc1S(=O)(=O)n1cnc2cc(C)c(C)cc21	-1.88	-1.06
CC(=O)OCC1OC(n2ccc(=O)[nH]c2=O)C(O)C1O (stereo unspecified)	-1.45	-0.33
Cc1ccc2nc(C3=C(O)CN(Cc4ccco4)C3=N)[nH]c2c1	0.24	-0.31
Cc1cccc(NS(=O)(=O)c2cc(/C=C/c3onc(C)c3[N+](=O)[O-])ccc2C)c1	/	0.73
O=C(CSc1nc2ccccc2nc1N1CCCC1)Nc1ccc(Cl)cc1	-2.54	0.81
CC1CCC(NC(=O)c2nnc(Cc3ccc4c(c3)OCO4)o2)CC1 (stereo unspecified)	-1.3	1.86
COc1ccc(-c2[nH]nc3nc(-c4cccc(OC)c4OC)cc(C(=O)O)c23)cc1	/	0.99
O=C(c1ccc(Cl)cc1)c1coc2c1cc(O)c1ccccc12	-0.1	/
Cc1cc(OCc2n[nH]c(=S)n2C)ccc1Cl	0.52	/
S=c1[nH]nc2n(CCOc3ccccc3)c3ccccc3n12	-2.2	/
CCc1nnc(NC(=O)c2cc3c(=O)oc4ccccc4c3n2C)s1	/	0.16

# (cont.)
SMILES	CDC25B-CDK2 inh	TAR Tat displ
Cc1nn(-c2ccc(Br)cc2)cc1-c1noc(C(=O)NCC2CCCO2)n1 (stereo unspecified)	/	-0.26
COCCNC(=O)CN1Cc2ccccc2C1=O	/	0.47
COCCNS(=O)(=O)c1ccc2c(c1)NC(=O)CC(C)S2 (stereo unspecified)	/	2.09
COCCNc1cc(N2CCC(=O)CC2)c2noc3c2c1C(=O)c1ccccc1-3	-0.82	-0.01
CN(C)CCNC(=O)c1cnn(-c2ccc(F)cc2)c1-n1cccc1	/	1.47
CC(C)c1nn2c(=O)c(NC(=O)c3ccccc3)cnc2s1	-1.2	-0.34
CCOC(=O)c1cn(CC(N)=O)c2nc(C)ccc2c1=O	/	0.3
O=C1Nc2ccccc2C(O)(C(=O)N2CCN(c3ccccn3)CC2)N1c1ccccc1 (stereo unspecified)	0.03	/
O=C(Cn1c(-c2cccs2)cc2ccccc21)N1CCc2ccccc21	/	0.98
CCn1ccnc1C(O)c1ccc(OC)c(OC)c1 (stereo unspecified)	-0.05	0.17
FC(F)(F)c1ccnc(NCc2ccc(Cl)cc2)n1	-0.82	/
Cc1cccc(CN2CCc3nc(N4CCN(C)CC4)ncc3C2)c1	/	2.02
